AID504770: E. coli YBA685 growth inhibition, screen for V. cholerae RctB inhibitors; actives 0.27% (n = 130,000); AID 504770; z-score (test concentration not listed); E. coli YBA685 rctB-dependent plasmid, OD600 growth, 3 h; active compounds read low;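 active = z-score under -2 on both plates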;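 also: wells of about 30 µL received 100 nL stock; score is relative to mean and SD of the test wells; the first replicate is given; strong numbers were not always called active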
Ba CapD inh: CapD enzyme inhibition; z-score (no concentration beside the values); actives 0.23% (n = 140,000); purified CapD enzyme, fluorescence intensity read-out; active compounds read low; some hits fall short of the stated cut; AID 492967;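 active = z-score under -4 in either of two replicates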;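 also: stock transfer was 100 nL into about 40 µL; score is relative to mean and spread of the plate; one replicate is shown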
* = called active by the depositor; · = not tested or not shown.

The opening 5 records, ahead of the listing:
SMILES	AID504770	Ba CapD inh
C[N+](C)(C)CC(O)CC(=O)O (configuration not stated)	-1	-0.17
COc1ccc(Cl)cc1N=C(C#N)C1=C(O)c2ccccc2C1=O	0.3	0.57
O=C(O)c1cccnc1Sc1cccc(C(F)(F)F)c1	-0.35	·
CCCc1cc(=O)[nH]c(SCC(=O)N(CC(C)C)C2CCS(=O)(=O)C2)n1 (configuration not stated)	-0.6	·
CCOC(=O)c1c(C)[nH]c(C)c1S(=O)(=O)NCCCc1ccco1	1.1	-1.2

The listing (from the top)
SMILES	AID504770	Ba CapD inh
C[N+](C)(C)CC(O)CC(=O)O (configuration not stated)	-1	-0.17
COc1ccc(Cl)cc1N=C(C#N)C1=C(O)c2ccccc2C1=O	0.3	0.57
O=C(O)c1cccnc1Sc1cccc(C(F)(F)F)c1	-0.35	·
CCCc1cc(=O)[nH]c(SCC(=O)N(CC(C)C)C2CCS(=O)(=O)C2)n1 (configuration not stated)	-0.6	·
CCOC(=O)c1c(C)[nH]c(C)c1S(=O)(=O)NCCCc1ccco1	1.1	-1.2
CC(C)c1ccc(-c2noc(COC(=O)c3c[nH]c4ccccc34)n2)cc1	1.4	·
CCOC(=O)c1sc2ncnc(N3CCC(C(N)=O)(N4CCCCC4)CC3)c2c1C	·	0.99
COc1cc(C(C#N)N2CCCCC2)ccc1O (configuration not stated)	-0.85	-2.2
Cc1nnsc1C(=O)NC1CCN(Cc2ccccc2)CC1	0.7	1.6
O=C(Cn1cc(I)c(=O)[nH]c1=O)N1CCOCC1	-0.45	·
Cc1ccc(Oc2ncccc2C(=O)NCC(=O)O)cc1	-0.45	0.12
Cc1ccc2nc3c(cc(C(=O)NCCN4CCOCC4)c(=N)n3CC3CCCO3)c(=O)n2c1 (configuration not stated)	2.4	-1.5
OC(CSc1ccc(F)cc1)CN1CCN(C(c2ccccc2)c2ccccc2)CC1 (configuration not stated)	·	0.7
N#Cc1c2c(c(N3CCN(c4ccccn4)CC3)n3c1nc1ccccc13)CCC2	·	0.16
CCCn1nc(C(=O)Nc2nc3ccccc3[nH]2)c2ccccc2c1=O	-0.2	·
CN1CCN(NC(=O)COc2ccc(C#N)cc2)CC1	0.1	·
CC(=O)Nc1ccc(C(F)(F)F)cc1	·	0.13
Cc1ccc(S(=O)(=O)/N=C(\N)Nc2nc(C)c3ccccc3n2)cc1	0.5	4.8
CC(C)Cn1c(NC(=O)NC(C)(C)C)c2ccccc2nc1=O	-0.25	·
Cc1cccc(Nc2ccc(NCc3ccccc3)nn2)c1	-0.4	-0.11
CC1CC(O)(CC(O)(c2ccccc2)c2ccccc2)C(C)CN1C (configuration not stated)	2	-0.62
c1ccc(CNC2CC2)nc1	0.35	·
CCOC(=O)c1ccc(NC(=O)CN2CCN(C(=O)c3ccco3)CC2)cc1	2.8	-2.7
Cc1ccc(Sc2ncccc2NC(=O)c2cccc3ccccc23)cc1	0.15	-0.39
CC1=C(C(=O)Nc2ccccc2)C(c2ccccc2)NC(=O)N1 (configuration not stated)	-0.8	-0.96

More results follow.
SMILES	AID504770	Ba CapD inh
COC(=O)c1sccc1S(=O)(=O)Nc1ncc(C)cc1Br	0.85	0.29
O=C(C1CCCCC1)N1CCN(c2ncnc3c2cnn3-c2ccccc2)CC1	-0.3	·
O=C1CC(n2nc(-c3ccc(Cl)cc3)n(-c3ccccc3)c2=S)C2COC1O2 (configuration not stated)	·	1.1
CCCNC(=O)C1CCN(c2nc3ccc(CC)cc3s2)CC1	-1.3	-0.21
CC(C)(C)OC(=O)N1CCC[C@H]1C(=O)N1CCN(c2ccccc2)CC1	0.75	·
CC(C)c1ccc(NNC(=O)C2CCC2)cc1	-0.75	-0.025
COc1cc(OC)nc(OC(Cc2cnccn2)c2ccc(C(F)(F)F)cc2)n1 (configuration not stated)	·	-0.31
CC(C)c1ccc(C2CC(=O)Nc3c2ccc2ccccc32)cc1 (configuration not stated)	·	2.9
Cc1c(Br)cc2nsnc2c1C	·	0.075
CN1CCCC(CC2c3ccccc3Sc3ccccc32)C1 (configuration not stated)	·	-0.54
Cc1ccc(NC(=O)C2=C(N)C(C(=O)Nc3c(F)c(F)c(F)c(F)c3F)SC2=NCc2ccco2)c(C)c1 (configuration not stated)	-0.15	·
COc1ccc(N2C(=O)C(N3C(=O)c4c(Cl)c(Cl)c(Cl)c(Cl)c4C3=O)C2c2cc(OC)ccc2OC)cc1 (configuration not stated)	·	-0.43
Cc1nnc(SCc2nnc(-c3ccccc3)o2)o1	2.1	·
CCOC(=O)C1=C(C)N=c2s/c(=C\c3ccc(OC(C)=O)c(OC)c3)c(=O)n2C1c1ccccc1OC(C)C (configuration not stated)	·	0.035
CCOc1cc2c(cc1OCC)-n1cccc1C(C1CCCCC1)NC2 (configuration not stated)	-0.65	0.4
CCN1CCN(C(=O)c2ccc(Cn3c(=O)[nH]c4cc(OC)c(OC)cc4c3=O)cc2)CC1	0.05	74
CCC(=O)OCC(=O)Nc1ccc2c(c1)c1ccccc1n2CC	1.4	·
COc1ccccc1N1CCN(CCCNS(=O)(=O)c2ccc3c(c2)C(C)(C)C(=O)N3C)CC1	-0.4	-0.17
COc1cccc(/C=N/NC(=O)CSc2nnnn2-c2ccccc2)c1	0.1	0.83
Cc1c(C(=O)N2CCCC2)c(S(=O)(=O)N2CCc3ccccc32)c(C)n1C	-0.1	0.43
CCn1cc(C(=O)N2CCN(Cc3ccc4c(c3)OCO4)CC2)c2cc(OC)c(OC)cc2c1=O	-0.1	4.8
Cc1cc(NC(=O)c2cc(-c3ccc(Br)cc3)nc3ccccc23)no1	·	-1.3
COc1ccc(Br)cc1/C=N/NC(=O)COc1ncn(-c2ccccc2)n1	·	0.03
COc1ccc(NC(=O)c2cc3nc(-c4ccc5c(c4)OCO5)cc(C(F)(F)F)n3n2)cc1	·	0.41
Cc1oc(-c2ccc(Cl)cc2)nc1CN1CCC(C(=O)N2CCc3ccccc3C2)CC1	-0.55	-0.29

Next compounds follow.
SMILES	AID504770	Ba CapD inh
NC(=O)CSc1nc2c(c(=O)n1-c1ccccc1)C1(CCCC1)Cc1ccccc1-2	·	25
CN(CC(=O)Nc1ccc2c(c1)OCCO2)S(=O)(=O)/C=C/c1ccccc1	-0.45	·
O=C1Nc2ccc(Cl)cc2C(c2cccc(O)c2)=NC1O (configuration not stated)	-0.85	-0.11
O=C(CN(c1ccccc1)S(=O)(=O)c1ccc(F)cc1)N1CCCC1	·	-0.72
Cc1cccc(N2C(=S)NC3c4cc(Cl)cc(Cl)c4OC2(C)C3C(=O)N(C)C)c1 (configuration not stated)	-0.7	0.35
CC1=NC(C(F)(F)F)(C(F)(F)F)N=C(N(C)C)O1	0.7	-0.86
CCOC(=O)c1c(NC(=O)c2ccc(C)cc2)sc(C(=O)Nc2cc(C(F)(F)F)ccc2Cl)c1C	·	0.32
CCn1c(C)c(CCC(=O)O)c(=O)n2nc(-c3ccccc3OC)cc12	-0.6	9.1
COCP(=O)(c1ccccc1)c1ccccc1	-0.2	0.22
O=C(N/N=C/c1ccccc1)c1ccc(OCc2ccc(Cl)c(Cl)c2)cc1	·	-0.09
Cc1cc(Cl)ccc1OCC(=O)NC1(C#N)CCCCC1	0.15	·
CCOC(=O)c1cnn(-c2ccccc2)c1NC(=O)CSc1nc2ccccc2o1	-0.55	0.1
O=C1COCC(=O)N1c1ccc(F)cc1F	-0.65	0.26
CC1=C(C(=O)Nc2ccccc2C(=O)N2CCCCC2)SCCO1	-0.3	0.25
CCC(=O)NCCCc1nc2ccccc2n1Cc1ccccc1	-0.85	-0.68
CC(/C=C/c1ccco1)=N/NC(=O)Cc1cccs1	-1.1	·
CCc1ccc(NC(=O)c2sccc2-n2cccc2)cc1	0.8	0.39
OC1(c2cccc(F)c2)CC2CCC(C1)N2Cc1nnnn1CCc1ccccc1 (configuration not stated)	-0.6	·
O=C(NN1C(=O)CSC1=S)c1ccc(F)cc1	-0.15	·
Cc1c(O)ccc(C(=O)CN2CCN(c3ccc(F)cc3)CC2)c1O	0.05	·
c1csc(-c2csc3ncnc(NC4CCCC4)c23)c1	0.8	-0.04
CC1(C)CC(=O)C2=C(C1)OC1=C(C(=O)CC(C)(C)C1)C2c1ccc(Cl)cc1	·	-0.38
CCC1=[N+]([O-])C(C)(/C(C)=N\O)N(O)C1(C)C (configuration not stated)	-0.05	-0.57
O=[N+]([O-])c1ccc(Oc2ccc(Cl)cc2)nc1	·	-0.95
c1ccc(CCN2CCc3nc(N4CCN(c5ccccc5)CC4)ncc3C2)cc1	-1.3	1.8

Ordered by count of non-hydrogen atoms (smallest number first): part of the list above.
SMILES	AID504770	Ba CapD inh
O=C1COCC(=O)N1c1ccc(F)cc1F	-0.65	0.26
O=C(NN1C(=O)CSC1=S)c1ccc(F)cc1	-0.15	·
c1csc(-c2csc3ncnc(NC4CCCC4)c23)c1	0.8	-0.04
O=C1Nc2ccc(Cl)cc2C(c2cccc(O)c2)=NC1O (configuration not stated)	-0.85	-0.11
CC1=C(C(=O)Nc2ccccc2C(=O)N2CCCCC2)SCCO1	-0.3	0.25
CC1(C)CC(=O)C2=C(C1)OC1=C(C(=O)CC(C)(C)C1)C2c1ccc(Cl)cc1	·	-0.38
CCOC(=O)c1cnn(-c2ccccc2)c1NC(=O)CSc1nc2ccccc2o1	-0.55	0.1

(cont.)
SMILES	AID504770	Ba CapD inh
CCc1ccccc1NNC(=O)c1cc(C)on1	-0.45	-0.58
COc1ccc(N=c2oc3cc(OC(C)=O)ccc3cc2C(=O)NC(C)=O)cc1	·	-0.21
COc1ccc(NC(=O)Cn2c(=O)n(CCc3ccccc3)c(=O)c3cccnc32)cc1	0.8	0.14
CN(Cc1ccccc1)C(=O)CC(=O)N(C)Cc1ccccc1	0.05	-0.36
O=C(O)CCc1cc(=O)[nH]o1	1.1	·
Cc1ccc(S(=O)(=O)N2Cc3ccccc3CC2C(=O)Nc2cccc3ccccc23)cc1 (configuration not stated)	-0.55	0.1
COC(=O)c1cn[nH]c1NC(=S)Nc1ccccc1C	0.15	0.24
CC(C)(C)n1nc2c(c1NC(=O)c1ccc(Cl)cc1)CSC2	-0.6	-0.51
O=C(Nc1ccccc1N1CCCC1)C1COc2ccccc2O1 (configuration not stated)	-0.45	·
COc1ccc(CCNC(=O)c2oc3ccc4c(c3c2C)C(O)CC(C)(C)O4)cc1OC (configuration not stated)	0.5	11
COc1cc(C2C3=C(CC(C)(C)CC3=O)OC3=C2C(=O)CC(C)(C)C3)ccc1OCc1ccc(F)cc1	·	0.1
Cc1ccc2nc(C)oc(=O)c2c1	·	0.32
COc1ccc(N2CCN(Cn3cnc4ccccc43)CC2)cc1	0.5	·
COc1ccccc1NC(=O)/C=c1\[nH]c(=O)/c(=C\c2ccc(C#N)cc2)s1	1.9	·
O=C(C[n+]1ccccc1)Nc1ccccc1	-1.9	·
Cc1cc(C)c2oc(-c3cccc(NC(=O)c4ccc(Br)o4)c3C)nc2c1	-1.4	0.38
Cc1ccc(CNc2ncnc3c2nc2n3CCCCC2)cc1	-0.5	0.24
O=C(NCc1cccs1)C(Cc1ccccc1)NS(=O)(=O)c1cccc2nsnc12 (configuration not stated)	-1.1	-0.6
COc1ccc(OCC(=O)N2c3ccc(C)cc3-c3c(ssc3=S)C2(C)C)cc1	·	-0.63
CCCCCCCCOc1ccc(/C=C(\C#N)c2nc(-c3cc4ccccc4oc3=O)cs2)cc1	·	0.44
CC(C)(C)NC1CCCCC1NS(=O)(=O)c1ccc(Cl)cc1 (configuration not stated)	0.2	-0.51
Cc1ccc(S(=O)(=O)Nc2c(-c3ccccc3)c3cc(C)ccc3[nH]c2=O)cc1	1.6	0.33
Cn1nnc2cc(NC(=O)NCc3ccco3)ccc21	-1.7	18
Nc1cccc[n+]1CC(=O)[O-]	-0.65	·
C#CCNC(=O)Nc1ccccc1OC	1.3	·

Taken from above.
For Ba CapD inh, Cn1nnc2cc(NC(=O)NCc3ccco3)ccc21 is entered as 18
For AID504770, COc1ccccc1NC(=O)/C=c1\[nH]c(=O)/c(=C\c2ccc(C#N)cc2)s1 is entered as 1.9

Further results:
SMILES	AID504770	Ba CapD inh
Cc1[nH]c2ccccc2c1CCCNC1CCCCC1	1.1	-0.67
CC(=O)Nc1cc(C(=O)N2CC(C)CC(C)C2)ccc1Sc1ccc(Cl)cc1 (configuration not stated)	-1.1	0.3
O=[N+]([O-])c1cccc(/C=C/c2ccccn2)c1	·	-0.96
COc1ccc(-c2ccc(/C=C3\C(=O)N(c4ccc(Br)cc4)N=C3C)o2)c([N+](=O)[O-])c1	·	-0.39
CC1(C)CSC(=NCc2ccccc2)N1	-0.75	0.62
CCOC(=O)C1CCCN(Cn2ncn(C)c2=S)C1 (configuration not stated)	0.05	·
COc1ccc2c(c1)c1ccccc1n2C	2.1	-1.6
O=C(CCc1nc2ccccc2o1)Nc1cccc(-n2cnnn2)c1	-1.1	·
CCn1cc(C(=O)O)c(=O)c2cc(F)c(N3CCN(C(C)=O)CC3)cc21	-3*	·
O=c1[nH]c(-c2cc(Br)cs2)nc2ccc(Cl)cc12	·	0.51
Cc1cc(OC(=O)c2ccccc2)n(-c2ccccc2)n1	-1	-1.5
COc1ccc(-c2sc(C(=O)O)cc2C)cc1	0.65	·
COCCNC(=O)c1nc2c(nnn2Cc2cc(C)ccc2C)c(=O)[nH]1	-0.05	·
O=C(NCc1cccnc1)c1cc(Nc2cccc(C(F)(F)F)c2)nc2ccccc12	0.6	2.3
COCc1cc(=O)[nH]c(-c2ccc(C(F)(F)F)cn2)n1	-1.8	0.42
O=C1C(=Nc2cccnc2)c2ccccc2N1CN1CCOCC1	-0.1	-0.44
O=C(CSc1nc2cc(C(=O)NCC3CCCO3)ccc2c(=O)n1CC1CCCO1)c1ccccc1 (configuration not stated)	·	0.11
COC(=O)c1cc2cc(NS(=O)(=O)c3ccc(C)cc3)ccc2s1	·	1.1
Cc1ccc(S(=O)(=O)N2CCCC(c3nc4c(nnn4Cc4ccc5c(c4)OCCO5)c(=O)[nH]3)C2)cc1 (configuration not stated)	0	0.46
CCCC(C)C(=O)Nc1ccc(F)cc1 (configuration not stated)	-0.75	0.08
O=c1ccc2cc3c(-c4ccc(F)cc4)coc3cc2o1	-2	-0.94
COc1ccc(CC(=O)NNC(=O)c2ccc(-n3cccc3)cc2)cc1OC	·	-0.19
O=C(CSc1nnc(COc2ccccc2)o1)NCCc1ccccc1	0.05	-0.33
